Bioassay records deposited in PubChem by Broad Institute.
FGF22 binding: binders of human FGF22 protein, primary screen, FGF22 synaptogenesis inhibitor project, biophysical, thermal shift, single point; Fibroblast growth factor 22 (Homo sapiens), Q9HCT0; recombinant FGF22 thermal shift, SYPRO orange fluorescence; percent of sucrose octasulfate shift, DMSO zero; calls only at 9.99 µM; hit rate 1.5% among 340,000;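 active = melting point raised past a set limit in the mean and every replicate; three in four hits are not shown here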
Target sequence (Q9HCT0 whole entry, looked up): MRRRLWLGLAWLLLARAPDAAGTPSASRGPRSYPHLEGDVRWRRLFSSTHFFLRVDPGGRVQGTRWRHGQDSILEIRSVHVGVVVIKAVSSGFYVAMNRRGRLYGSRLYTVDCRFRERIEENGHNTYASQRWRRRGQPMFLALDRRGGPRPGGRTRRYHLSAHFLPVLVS
AF4-AF9 inh: inhibitors of AF4 peptide binding to AF9, primary screen, biochemical, AlphaScreen, biotin-AF4 peptide, FLAG-AF9, single point. inhibition, % at 10 µM. hit rate 0.47% among 350,000. AID 651704, 2012;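 active = every replicate reaching a set inhibition limit, whatever the replicate mean, cut at about 25% in these data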;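 note: 0% = plate neutral control median and 100% = total signal loss; the record names both 10 and 1 µM as test concentration; the first replicate is given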
Target sequence (P42568 whole entry, looked up): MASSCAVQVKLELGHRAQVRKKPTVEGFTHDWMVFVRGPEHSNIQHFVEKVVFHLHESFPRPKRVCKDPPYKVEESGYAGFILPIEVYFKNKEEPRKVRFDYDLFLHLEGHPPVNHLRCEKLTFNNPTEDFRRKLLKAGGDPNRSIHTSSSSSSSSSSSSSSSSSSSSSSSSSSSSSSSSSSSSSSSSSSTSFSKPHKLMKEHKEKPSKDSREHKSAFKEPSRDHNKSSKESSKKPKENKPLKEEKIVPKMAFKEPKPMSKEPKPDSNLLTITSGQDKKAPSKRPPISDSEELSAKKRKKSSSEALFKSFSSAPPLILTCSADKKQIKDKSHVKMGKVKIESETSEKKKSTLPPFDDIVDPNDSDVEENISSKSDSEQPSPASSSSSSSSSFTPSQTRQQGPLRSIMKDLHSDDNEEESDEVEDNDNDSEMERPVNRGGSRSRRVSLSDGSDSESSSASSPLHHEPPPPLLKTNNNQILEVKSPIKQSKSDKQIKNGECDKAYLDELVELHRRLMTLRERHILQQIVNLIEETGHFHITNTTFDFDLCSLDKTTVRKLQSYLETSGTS
rRNA inh HTS: reduced GFP signal of wild-type E. coli, primary screen, bacterial rRNA inhibitor project, GFP/RFP fluorescence, OD600, single point | GFP signal change (wild-type ribosome), % (no concentration beside the values) | E. coli WT GFP vs humanized-ribosome RFP mutants, 24 h; stronger effect = lower value; DMSO median 0, no signal -100 | hit rate 1.6% among 350,000;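 active = significant combined selectivity score with lowered wild-type GFP, culture density cut under 30%, mutant RFP and density less affected; inactive = any of these conditions unmet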; note: one replicate is shown; some compounds called inactive have numbers as strong as hits
rRNA inh HTS OD600: also measured in rRNA inh HTS; calls as there; OD600 change, %; measured here: OD600 growth;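 optical density of the mix in the first replicate; 0 = DMSO median and -100 = no signal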
rRNA inh HTS RFP: also measured in rRNA inh HTS; calls as there; RFP signal change, %; measured here: RFP humanized mutant strains;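 first replicate; 0 = DMSO median and -100 = no signal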
An asterisk follows results filed as active; i = inactive; & = joins results of further samples.

The first eight compounds, to show the layout:
SMILES | FGF22 binding | AF4-AF9 inh | rRNA inh HTS | rRNA inh HTS OD600 | rRNA inh HTS RFP
C[C@H](CO)N1C[C@H](C)[C@H](CN(C)C(=O)Nc2ccc(C(F)(F)F)cc2)Oc2c(NC(=O)c3cnccn3)cccc2C1=O | i | -0.9 | -1.9 | 6.4 | -1.4
CC(C)NC(=O)N(C)C[C@H]1OCCCC[C@@H](C)Oc2ccc(NC(=O)C3CCCCC3)cc2C(=O)N([C@H](C)CO)C[C@@H]1C | i | -2.3&1.0&-1.2 | 16.0&4.9 | 7.9&2.6 | 1.2&-0.2
C[C@H]1CN([C@@H](C)CO)C(=O)Cc2cc(NC(=O)Nc3ccc(C(F)(F)F)cc3)ccc2O[C@@H]1CN(C)CC1CCCCC1 | i | -1.4 | 3.4 | 9.2 | -2.2
COc1ccc(Cc2c(-c3ccc(C)cc3)nc3ccc(Cl)cn23)c(C)c1 | i | -2.3 | 3.4 | -1.3 | -1.3
CC(=O)N(C)C[C@H]1Oc2cc(C#CCN(C)C)ccc2S(=O)(=O)N([C@@H](C)CO)C[C@@H]1C | i | -4.1 | 0.9 | 8.9 | -0.3
C[C@H](CO)N1C[C@H](C)[C@H](CN(C)Cc2ccccc2)Oc2c(NC(=O)Nc3cccc4ccccc34)cccc2C1=O | i | 6.0 | -2.2 | -13.3 | -2.6
C/C=C/c1cnc2c(c1)C(=O)N([C@@H](C)CO)C[C@H](C)[C@@H](CN(C)S(=O)(=O)c1ccc(F)cc1)O2 | i | 1.4 | 0.0 | 9.1 | 1.8
N#C[C@H]1[C@H](c2ccc(-c3cccnc3)cc2)[C@@H](CO)N1C(=O)C1CCC1 | i | -2.4 | -11.4 | -3.9 | 4.8

The list itself (from the top)
SMILES | FGF22 binding | AF4-AF9 inh | rRNA inh HTS | rRNA inh HTS OD600 | rRNA inh HTS RFP
C[C@H](CO)N1C[C@H](C)[C@H](CN(C)C(=O)Nc2ccc(C(F)(F)F)cc2)Oc2c(NC(=O)c3cnccn3)cccc2C1=O | i | -0.9 | -1.9 | 6.4 | -1.4
CC(C)NC(=O)N(C)C[C@H]1OCCCC[C@@H](C)Oc2ccc(NC(=O)C3CCCCC3)cc2C(=O)N([C@H](C)CO)C[C@@H]1C | i | -2.3&1.0&-1.2 | 16.0&4.9 | 7.9&2.6 | 1.2&-0.2
C[C@H]1CN([C@@H](C)CO)C(=O)Cc2cc(NC(=O)Nc3ccc(C(F)(F)F)cc3)ccc2O[C@@H]1CN(C)CC1CCCCC1 | i | -1.4 | 3.4 | 9.2 | -2.2
COc1ccc(Cc2c(-c3ccc(C)cc3)nc3ccc(Cl)cn23)c(C)c1 | i | -2.3 | 3.4 | -1.3 | -1.3
CC(=O)N(C)C[C@H]1Oc2cc(C#CCN(C)C)ccc2S(=O)(=O)N([C@@H](C)CO)C[C@@H]1C | i | -4.1 | 0.9 | 8.9 | -0.3
C[C@H](CO)N1C[C@H](C)[C@H](CN(C)Cc2ccccc2)Oc2c(NC(=O)Nc3cccc4ccccc34)cccc2C1=O | i | 6.0 | -2.2 | -13.3 | -2.6
C/C=C/c1cnc2c(c1)C(=O)N([C@@H](C)CO)C[C@H](C)[C@@H](CN(C)S(=O)(=O)c1ccc(F)cc1)O2 | i | 1.4 | 0.0 | 9.1 | 1.8
N#C[C@H]1[C@H](c2ccc(-c3cccnc3)cc2)[C@@H](CO)N1C(=O)C1CCC1 | i | -2.4 | -11.4 | -3.9 | 4.8
CO[C@@H]1CN(C)C(=O)c2ccc(NC(=O)C3CC3)cc2OC[C@@H](C)N(C(=O)c2cccnc2)C[C@@H]1C | i | 4.0 | 0.6 | -2.8 | -0.2
CO[C@H]1CN(C)C(=O)c2cc(NC(=O)C3CC3)ccc2OC[C@@H](C)N(Cc2ccccc2)C[C@@H]1C | i | 1.0 | -4.6 | -14.7 | 1.0
CCCNC(=O)C[C@@H]1CC[C@H]2[C@H](COc3ccc(NS(=O)(=O)c4ccccc4C)cc3C(=O)N2C)O1 | i | 0.4 | -1.2 | 0.8 | -2.7
COc1ccccc1CNC(=O)C1(C)CCN1Cc1ccc2ccccc2c1 (centres undefined) | i | 0.9 | -23.4 | -54.1 | -2.2
O=[N+]([O-])c1cccc(C2Nc3ccccc3CO2)c1 (centres undefined) | i | -1.6 | 0.4 | 9.8 | -0.2
C[C@@H]1CCCCO[C@@H](CN(C)C)[C@@H](C)CN([C@H](C)CO)C(=O)c2cc(NC(=O)Cc3ccccc3)ccc2O1 | i | -8.3 | -0.2 | 10.8 | -0.6
C[C@H]1CN([C@@H](C)CO)C(=O)c2cc(-c3cccnc3)cnc2O[C@H]1CN(C)C(=O)C1CC1 | i | -2.3 | 1.6 | -0.4 | -4.8
COC(=O)Cc1ccc(OC2(C)CCN(Cc3csc4ccccc34)C2)cc1 (centres undefined) | i | 4.6 | -2.8 | -2.1 | 2.6
COc1ccc2c3c(n(C)c2c1)[C@H](CO)N(Cc1ccncc1)CC31CCN(C(=O)C2CCCCC2)CC1 | i | 30.6* | 1.2 | -2.9 | -1.8
Cc1cnc(NC(=O)C2(C)CCN2C(=O)C(C)C)s1 (centres undefined) | i | -2.4 | -1.3 | -9.2 | -0.3
CC(C)CC#Cc1cnc2c(c1)C(=O)N([C@H](C)CO)C[C@H](C)[C@@H](CN(C)Cc1ccc3c(c1)OCO3)O2 | i | 10.9 | 5.9 | -12.9 | 33.1
CCC(C)N(C(=O)COC(=O)c1ccc(N)c([N+](=O)[O-])c1)C1CCS(=O)(=O)C1 (centres undefined) | i | -4.7 | 11.2 | 17.4 | -1.7
Cc1noc(C)c1S(=O)(=O)Nc1ccc2c(c1)C(=O)N([C@H](C)CO)C[C@H](C)[C@H](CN(C)S(=O)(=O)c1cccs1)O2 | i | -1.6 | -3.6 | -6.9 | 2.0
CN1[C@@H]2c3ccc(/C=C/c4ccccc4)c(=O)n3C[C@@H]2[C@@H](CO)[C@@H]1C(=O)NC1CCCCC1 | i | -7.7 | -7.7 | -35.2 | 27.8
C[C@H]1CN([C@@H](C)CO)C(=O)c2cc(NC(=O)Nc3ccc4c(c3)OCO4)ccc2O[C@H]1CN(C)Cc1ccc(Cl)c(Cl)c1 | i | 1.8 | 0.0 | -9.2 | 3.0
CN1CCN(C(=O)C[C@@H]2C[C@@H]3c4cc(NC(=O)NC5CCCCC5)ccc4O[C@@H]3[C@@H](CO)O2)CC1 | i | -0.2 | 5.3 | 11.2 | 0.4
COc1ccc(S(=O)(=O)NC(=O)C2(C)CCN2C(=O)COc2ccc(Cl)cc2)cc1OC (centres undefined) | i | -3.0 | 3.0 | 5.6 | -0.5
C[C@@H]1CN([C@@H](C)CO)C(=O)c2cc(NS(C)(=O)=O)ccc2O[C@@H](C)CCCCO[C@H]1CN(C)CC1CC1 | i | -3.8 | 2.0 | 1.9 | -0.5
CCCNC(=O)C[C@H]1CC[C@@H]2[C@H](COC[C@@H](O)CN2C(=O)Nc2c(C)noc2C)O1 | i | 0.7 | 2.0 | 11.6 | -5.7
Cc1ccc(S(=O)(=O)N[C@@H]2CC[C@@H](CC(=O)N3CCc4ccccc4C3)O[C@H]2CO)cc1 | i | -0.5 | -4.5 | -6.0 | 1.5
CC1(C)CC(=O)C=C(c2ccc(-c3cccc(C(N)=O)c3)cc2)C1=O | i | 3.6 | -14.3 | -17.9 | 2.1
O=C(Nc1ccccc1)c1cc(C2CCCCN2S(=O)(=O)Cc2cccc(C(F)(F)F)c2)on1 (centres undefined) | i | -7.9 | -0.7 | 11.0 | 2.0
O=C(C[C@@H]1C[C@@H]2c3cc(NC(=O)Nc4ccc(C(F)(F)F)cc4)ccc3O[C@@H]2[C@@H](CO)O1)NCc1ccc2c(c1)OCO2 | i | 2.7 | -5.8 | -7.7 | -2.7
C[C@@H]1CCCCO[C@H](CN(C)C(=O)Nc2ccc3c(c2)OCO3)[C@H](C)CN([C@H](C)CO)C(=O)c2cc(NC(=O)CCCN(C)C)ccc2O1 | i | 10.4 | -1.2 | -2.8 | -0.3
COc1cc(CNC(=O)Nc2nc(C(N)c3ccccc3)cs2)cc(OC)c1OC (centres undefined) | i | 1.5 | 5.4 | 10.9 | 7.4
OC[C@H]1O[C@@H](c2nc(-c3ccccc3Br)no2)[C@H](O)[C@@H]1O | i | -4.9 | 10.8 | 25.6 | -1.7
CSc1ccc(CN2CCC(C)(Oc3cccc(F)c3)C2)cc1 (centres undefined) | i | 2.7 | 4.4 | -32.5 | -3.6
O=C1c2ccccc2[C@@H]2Cc3csc[n+]3[C@H]12 | i | -3.3 | 7.4 | 8.4 | 3.1
C[C@@H]1CN([C@@H](C)CO)C(=O)c2cc(C#CC3(O)CCCC3)cnc2O[C@H]1CN(C)S(=O)(=O)c1ccc(F)cc1 | i | -5.0 | -0.1 | -6.6 | 1.5
CN(C)C(=O)c1cccc(-c2cccc(-c3nc(C(=O)N4CCCCC4)cc4c3[C@H](CCO)N([S@@](=O)C(C)(C)C)C4)c2)c1 | i | -5.6 | 2.2 | 6.1 | 10.2
O=C(CC[C@H]1O[C@@H](n2ccc(=O)[nH]c2=O)[C@H](O)[C@@H]1O)N[C@H](Cc1ccccc1)C(=O)NCC1CCCCC1 | i | -5.2 | 9.4 | 19.0 | 8.3
COc1ccc(-c2ccc([C@@H]3[C@@H](CO)N(C(=O)C4CCOCC4)[C@H]3C#N)cc2)cc1 | i | -2.4 | -2.4 | 10.3 | 2.3
CC1CCCCC1NC(=O)C1CCC(CNS(=O)(=O)c2ccc3c(c2)C(C)(C)C(=O)N3C)CC1 (centres undefined) | i | -2.9 | 3.0 | 1.5 | 0.2
C[C@@H](NC(=O)C[C@H]1CC[C@@H](NC(=O)C2CCOCC2)[C@H](CO)O1)c1ccccc1 | i | 2.4 | 3.2 | 8.4 | 0.2
C[C@@H]1CCCCO[C@H](CN(C)C(=O)Nc2cccc3ccccc23)[C@H](C)CN([C@@H](C)CO)C(=O)c2cc(NC(=O)Cc3ccccc3)ccc2O1 | i | 2.2 | 3.6 | -6.2 | 3.5
Cc1noc(C)c1S(=O)(=O)Nc1ccc2c(c1)C(=O)N([C@H](C)CO)C[C@H](C)[C@H](CN(C)Cc1ccc(-c3ccccc3)cc1)O2 | i | 6.3 | -4.8 | -31.6 | 12.6
O=C(Nc1ccccc1)N[C@@H]1CC[C@H](CCNS(=O)(=O)c2ccccc2F)O[C@H]1CO | i | -0.8 | 0.7 | 6.9 | 0.5
Cc1cc(C(=O)Nc2cccc3c2O[C@H](CN(C)C(=O)NC(C)C)[C@H](C)CN([C@@H](C)CO)C3=O)n(C)n1 | i | 0.4 | 6.0 | 4.0 | -0.2
COc1ccc(NC(=O)N[C@@H]2CC[C@@H](CCNS(=O)(=O)c3ccccc3F)O[C@@H]2CO)cc1 | i | 0.5 | 0.3 | -5.8 | -1.0
Cc1ccccc1S(=O)(=O)N[C@H]1CC[C@H](CCn2cc(-c3ccc(F)cc3)nn2)O[C@@H]1CO | i | -3.0 | 3.8 | 2.8 | -0.2
COc1ncnc2c1ncn2CCCNCc1ccc(C)o1 | i | -3.9 | 2.6 | -4.9 | -0.5
COC(=O)[C@]12C[C@H](CC(=O)N3CCOCC3)C(=O)N(CCC3=CCCCC3)C1=C[C@H](COCc1ccccc1)O[C@@H]2C | i | -4.1 | -8.7 | -17.5 | -1.1

The results go on:
SMILES | FGF22 binding | AF4-AF9 inh | rRNA inh HTS | rRNA inh HTS OD600 | rRNA inh HTS RFP
CCCCC[C@H](C)N1C[C@@H](COCc2ccccc2)Oc2cc(N3CC[C@@H](N(C)C)C3)ccc2S1(=O)=O | i | 5.3 | -15.7 | -17.0 | 10.7
O=C(C[C@@H]1C=C[C@@H](NC(=O)C2CCC2)[C@H](CO)O1)NC1CCCCC1 | i | -12.3 | 1.7 | 8.6 | -3.4
COCC(=O)Nc1ccc2c(c1)OC[C@@H](C)N(C(=O)c1cccnc1)C[C@H](C)[C@@H](OC)CN(C)C2=O | i | 0.8 | 1.6 | -0.3 | -0.2
C[C@H](CO)N1C[C@H](C)[C@@H](CN(C)C(=O)CCC(F)(F)F)OCCCC[C@H](C)Oc2ccc(NS(=O)(=O)c3cn(C)cn3)cc2C1=O | i | 0.2 | 0.9 | 2.9 | 2.0
CCOC(=O)[C@]12CCCC=C1N(Cc1cccc3ccccc13)C(=O)[C@H](CC(=O)N1CCOCC1)C2 | i | -3.6 | -19.5 | -18.4 | 3.2
COCC(=O)N(C)C[C@@H]1[C@@H](c2ccccc2)[C@H](CO)N1C(=O)Cc1cccnc1 | i | -0.1 | 2.8 | 11.2 | -3.5
C[C@@H]1CN([C@H](C)CO)S(=O)(=O)c2ccc(C#Cc3ccccc3)cc2O[C@H]1CN(C)C(=O)C1CC1 | i | -0.7 | -1.6 | -36.4 | 4.7
C[C@@H]1CN([C@@H](C)CO)C(=O)CCCn2cc(nn2)CO[C@H]1CN(C)C(=O)Nc1ccc2c(c1)OCCO2 | i | -0.1&0.1 | 1.2&3.0 | 2.7&13.2 | 1.4&0.9
C[C@H](CO)N1C[C@H](C)[C@H](CN(C)Cc2ccc3c(c2)OCO3)Oc2ccc(NC(=O)Cn3cnnn3)cc2CC1=O | i | 0.1 | 0.8 | -4.3 | -3.1

This is a subset, so the mix of outcomes need not match the whole.
